YB-1 expr inh: YB-1 expression inhibition. U2OS, qRT-PCR YB-1 vs CDIP delta delta Cp, 16 h; hits give high values; zero = DMSO, each unit about twofold. delta delta Cp (YB-1 minus CDIP) (test concentration not listed). 30,000 compounds, 0.37% hits;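 active = delta delta Cp rounded down to an integer at or above 3, about 3 SD of DMSO wells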;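 note: higher means less YB-1 transcript or more CDIP transcript relative to DMSO; stock transfer was 100 nL into about 100 µL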
* = called active by the depositor. An excerpt (hit frequency here may not be typical).

Start of the data: the first 6 compounds as a preview:
molecule	YB-1 expr inh
CC1=C(C/C=N/NC(=O)CCCCCCC(=O)O)C(C)(C)CCC1	-0.73
C[C@@H]1CN([C@H](C)CO)C(=O)CCCn2cc(nn2)CO[C@H]1CN(C)Cc1ccccc1C(F)(F)F	0.0026
COc1ccc([Si](C)(C)[C@@H]2[C@@H](CCn3cc([C@H](O)c4ccccc4)nn3)O[C@]3(C(=O)N(C)c4ccccc43)[C@H]2C)cc1	-0.21
NC(=O)COc1ccc(/C=N/NC(=O)CCCCCCC(=O)Nc2ccccc2O)cc1	-0.22
C[C@@H]1CN([C@@H](C)CO)C(=O)CCCn2cc(nn2)CO[C@@H]1CN(C)Cc1ccccc1C(F)(F)F	0.37
NC(=O)COc1ccc(/C=N/NC(=O)c2ccccc2O)cc1	0.38

This part in full, previewed entries included:
molecule	YB-1 expr inh
CC1=C(C/C=N/NC(=O)CCCCCCC(=O)O)C(C)(C)CCC1	-0.73
C[C@@H]1CN([C@H](C)CO)C(=O)CCCn2cc(nn2)CO[C@H]1CN(C)Cc1ccccc1C(F)(F)F	0.0026
COc1ccc([Si](C)(C)[C@@H]2[C@@H](CCn3cc([C@H](O)c4ccccc4)nn3)O[C@]3(C(=O)N(C)c4ccccc43)[C@H]2C)cc1	-0.21
NC(=O)COc1ccc(/C=N/NC(=O)CCCCCCC(=O)Nc2ccccc2O)cc1	-0.22
C[C@@H]1CN([C@@H](C)CO)C(=O)CCCn2cc(nn2)CO[C@@H]1CN(C)Cc1ccccc1C(F)(F)F	0.37
NC(=O)COc1ccc(/C=N/NC(=O)c2ccccc2O)cc1	0.38
COCCCNC(=O)[C@@]1(Cc2ccccc2CN=[N+]=[N-])COC(c2ccc(OCCCO)cc2)=N1	-0.36
COc1cc2c(cc1OC)CN(C(=O)[C@H]1[C@@H]3C(=O)O[C@@H](c4ccccc4)[C@@H](c4ccccc4)N3[C@@H](c3ccc(O)cc3)[C@]13C(=O)Nc1ccc(C#CC4=CCCCC4)cc13)CC2	0.13
C[C@@H]1CN([C@H](C)CO)C(=O)CCCn2nncc2CO[C@H]1CN(C)Cc1ccc(C(=O)O)cc1	-0.11
C[C@@H]1CN([C@@H](C)CO)C(=O)CCCn2cc(nn2)CO[C@@H]1CN(C)C(=O)c1ccc(N2CCN(C)CC2)cc1	0.16
C[C@H](CO)N1C[C@H](C)[C@H](CN(C)S(=O)(=O)c2cn(C)cn2)Oc2ncc(C#Cc3ccc(C(F)(F)F)cc3)cc2C1=O	0.13
C=CCOc1ccccc1/C=N/NC(=O)CCCCCCC(=O)OC	0.044
O=C(NO)c1cccc(C(=O)N/N=C/c2cn(S(=O)(=O)c3ccccc3)c3ccccc23)c1	-0.35
COc1ccc(NC(=O)N(C)C[C@H]2OCc3cnnn3CCCC(=O)N([C@H](C)CO)C[C@H]2C)c(OC)c1	-0.035
COc1ccc(NC(=O)N(C)C[C@@H]2OCc3cn(nn3)CCCC(=O)N([C@H](C)CO)C[C@@H]2C)c(OC)c1	-0.16
CC(C)(C)OC(=O)N1CCC[C@H]1/C=N/NC(=O)c1cccc(C(=O)NO)c1	-0.091
C[C@H]1CN([C@@H](C)CO)C(=O)CCCn2cc(nn2)CO[C@H]1CN(C)Cc1ccc(C(=O)O)cc1	0.24
COC(=O)CCCCCCC(=O)N/N=C/c1nc[nH]c1C	0.15
CC(C)NC(=O)N(C)C[C@@H]1Oc2ncc(C#Cc3ccc(F)cc3)cc2C(=O)N([C@H](C)CO)C[C@@H]1C	-0.39
O=C(NO)c1cccc(C(=O)N/N=C/c2ccc(Br)s2)c1	-0.41
C[C@H](CO)N1C[C@H](C)[C@H](CN(C)S(=O)(=O)c2cccs2)Oc2ncc(-c3cccc(F)c3)cc2C1=O	-0.0035
C[C@H](CO)N1C[C@H](C)[C@@H](CN(C)S(=O)(=O)c2cccs2)OCc2cn(nn2)CCCC1=O	0.11
O=C(O)CCCCCCC(=O)N/N=C/c1cccs1	-0.078
C[C@H]1CN([C@@H](C)CO)C(=O)CCCn2nncc2CO[C@@H]1CN(C)Cc1ccc2c(c1)OCCN2C	-0.2
COCCOC(=O)N1C(=O)[C@@]2(c3cc(C#Cc4ccc(OC)cc4)ccc31)[C@H](c1ccccc1OCCO)N1[C@H](c3ccccc3)[C@H](c3ccccc3)OC(=O)[C@H]1[C@@H]2C(=O)NC[C@H](O)c1ccccc1	-0.57
C[C@@H]1CN([C@H](C)CO)C(=O)CCCn2cc(nn2)CO[C@@H]1CN(C)C(=O)c1ccc2ccn(C)c2c1	0.19
C[C@H](CO)N1C[C@H](C)[C@H](CN(C)C)OCc2cnnn2CCCC1=O	0.13
C[C@H]1CN([C@@H](C)CO)C(=O)CCCn2nncc2CO[C@H]1CN(C)S(=O)(=O)c1ccc(Cl)cc1	-0.46
C=C(C)[C@@H]1CC=C(/C=N/NC(=O)c2ccc(C(=O)NO)cc2)CC1	0.81
O=S(=O)(N[C@@H]1CCCN(Cc2ccc(OCCO)cc2)C1)c1cccc2cccnc12	0.058
C=CCN1Cc2ccccc2[C@H]2OC(c3ccc(OCCCO)cc3)=N[C@@]2(CCC(=O)OC(C)(C)C)C1=O	0.023
C=C(C)[C@@H]1CC=C(/C=N/NC(=O)CCCCC(=O)NO)CC1	-0.055
C=CC[C@]1(C(=O)N2CCOCC2)COC(c2ccc(OCCCO)cc2)=N1	-0.02
COc1cc(/C=N/NC(=O)c2ccccc2O)cc(OC)c1OC	0.037
O=C(NO)c1cccc(C(=O)N/N=C/c2ccc(OCCO)cc2)c1	0.12
O=C1NCC(=O)N2[C@@H]1C[C@@H](C(=O)NCc1ccc(F)cc1)[C@H]2c1cccc(OCCO)c1	0.37
C[C@H](CO)N1C[C@H](C)[C@@H](CN(C)Cc2ccccc2C(F)(F)F)OCc2cnnn2CCCC1=O	0.088
COc1ccc(S(=O)(=O)N(C)C[C@@H]2Oc3ncc(C#Cc4ccc(F)cc4)cc3C(=O)N([C@H](C)CO)C[C@@H]2C)cc1	0.041
CC(C)COC(=O)N(C)C[C@@H]1OCc2cnnn2CCCC(=O)N([C@@H](C)CO)C[C@H]1C	-0.086
COc1cc2c(cc1OC)CN(C(=O)[C@H]1[C@@H]3C(=O)O[C@@H](c4ccccc4)[C@@H](c4ccccc4)N3[C@@H](c3ccccc3OCCO)[C@]13C(=O)Nc1ccc(C#CC4=CCCCC4)cc13)CC2	-0.26
CCCNC(=O)[C@@]1(Sc2ccc(C)cc2)CC(=O)N(C2CCCCC2)[C@@H]1c1ccc(CO)cc1I	0.25
C[C@H](CO)N1C[C@H](C)[C@@H](CN(C)C(=O)Nc2cccc(Oc3ccccn3)c2)OCc2cn(nn2)CCCC1=O	-0.28
COc1ccc(NC(=O)N(C)C[C@@H]2Oc3ncc(C#Cc4ccc(F)cc4)cc3C(=O)N([C@H](C)CO)C[C@@H]2C)cc1	-0.13
C[C@H](CO)N1C[C@H](C)[C@@H](CN(C)S(=O)(=O)c2ccc(F)cc2)OCc2cnnn2CCCC1=O	0.47
C[C@H](CO)N1C[C@H](C)[C@@H](CN(C)Cc2ccccc2C(=O)O)OCc2cn(nn2)CCCC1=O	-0.38
O=C1O[C@H](c2ccccc2)[C@H](c2ccccc2)N2[C@H]1[C@@H](C(=O)N1CCCCCCC1)[C@]1(C(=O)Nc3ccc(C#CCCO)cc31)[C@H]2c1ccccc1OCCO	-0.33
COc1ccc([Si](C)(C)[C@@H]2[C@@H](CCO)O[C@]3(C(=O)N(Cc4ccc(N5CCOC5=O)cc4)c4ccccc43)[C@H]2C)cc1	-0.051
Cc1noc(C)c1S(=O)(=O)N(C)C[C@@H]1OCc2cnnn2CCCC(=O)N([C@@H](C)CO)C[C@H]1C	-0.53
COc1ccc(C#Cc2ccc3c(c2)[C@]2(C(=O)N3)[C@H](C(=O)N3CCN(c4ncccn4)CC3)[C@H]3C(=O)O[C@H](c4ccccc4)[C@H](c4ccccc4)N3[C@@H]2c2ccccc2OCCO)cc1	0.29
C[C@@H]1CN([C@@H](C)CO)C(=O)CCCn2cc(nn2)CO[C@H]1CN(C)Cc1cccc(O)c1	-0.26
C=CCNC(=O)[C@H]1[C@@H]2C(=O)O[C@@H](c3ccccc3)[C@@H](c3ccccc3)N2[C@@H](c2ccc(OCCO)cc2)[C@]12C(=O)N(C(=O)OCCOC)c1ccc(C#Cc3ccc(OC)cc3)cc12	0.5
O=S(=O)(c1cccc2cccnc12)N1CCN(Cc2cccc(OCCO)c2)CC1	-0.27
O=C(CCCCCC(=O)Nc1ccccc1O)N/N=C/c1cccc(C(=O)O)c1	-0.98
C[C@H](CO)N1C[C@H](C)[C@H](CN(C)C(=O)C2CC2)OCc2cnnn2CCCC1=O	-0.17
CN(C)c1ccc(/C=N/NC(=O)c2ccccc2O)cc1	0.31
O=C(O)CCCCCC(=O)N/N=C/c1cccnc1Br	-0.1
CCOC(=O)/C=C/c1c(OC)cccc1OC	-0.34
CC(C)(C)OC(=O)CC[C@@]12N=C(c3ccc(OCCCO)cc3)O[C@@H]1c1ccccc1CN(C(=O)c1ccccc1)C2=O	-0.044
COCCOC(=O)N1C(=O)[C@@]2(c3cc(C#CC4(O)CCCCCC4)ccc31)[C@H](C(=O)NC[C@H](O)c1ccccc1)[C@H]1C(=O)O[C@H](c3ccccc3)[C@H](c3ccccc3)N1[C@@H]2c1ccccc1OCCO	0.17
C[C@@H]1CN([C@H](C)CO)C(=O)CCCn2nncc2CO[C@H]1CN(C)Cc1ccc2c(c1)OCCO2	0.095

Fetched one by one from above, 2 records:
molecule	YB-1 expr inh
C=C(C)[C@@H]1CC=C(/C=N/NC(=O)CCCCC(=O)NO)CC1	-0.055
C[C@@H]1CN([C@@H](C)CO)C(=O)CCCn2cc(nn2)CO[C@H]1CN(C)Cc1cccc(O)c1	-0.26

Carrying on:
molecule	YB-1 expr inh
C[C@H]1CN([C@@H](C)CO)C(=O)CCCn2cc(nn2)CO[C@H]1CN(C)Cc1cccc(C(=O)O)c1	0.43
C[C@H](CO)N1C[C@H](C)[C@H](CN(C)S(=O)(=O)c2cn(C)cn2)Oc2ncc(C#CC(C)(C)O)cc2C1=O	-17
COCCOC(=O)N1C(=O)[C@@]2(c3cc(C#CCCO)ccc31)[C@H](C(N)=O)[C@H]1C(=O)O[C@H](c3ccccc3)[C@H](c3ccccc3)N1[C@@H]2c1ccc(OCCO)cc1	-0.26
C[C@H](CO)N1C[C@H](C)[C@@H](CN(C)C(=O)C2CC2)OCc2cnnn2CCCC1=O	-0.036
C[C@H]1CN([C@@H](C)CO)C(=O)CCCn2cc(nn2)CO[C@H]1CN(C)CC1CCCC1	0.35
CC(C)=CCC[C@H](C)C/C=N/NC(=O)CCCCCCC(=O)Nc1ccccc1O	0.19
C[C@@H]1CN([C@@H](C)CO)C(=O)CCCn2cc(nn2)CO[C@@H]1CN(C)C(=O)Nc1ccc(F)cc1	-0.096
Cc1noc(C)c1NC(=O)N(C)C[C@@H]1Oc2ncc(C#Cc3ccc(F)cc3)cc2C(=O)N([C@H](C)CO)C[C@@H]1C	0.39
O=C1c2ccccc2C(=O)N1CC1CCN(Cc2ccc(OCCO)cc2)CC1	0.016
O=C(N/N=C/c1ccccc1OCCO)c1ccccc1O	-0.21
C[C@@H]1CN([C@@H](C)CO)C(=O)CCCn2nncc2CO[C@H]1CN(C)C(=O)c1ccccc1	-0.44
O=C(N/N=C/c1ccc(CO)o1)c1ccccc1O	0.4
C[C@H](CO)N1C[C@H](C)[C@H](CN(C)Cc2ccc(Oc3ccccc3)cc2)OCc2cnnn2CCCC1=O	0.14
C[C@H]1CN([C@@H](C)CO)C(=O)c2cc(NC(=O)CCCCCC(=O)Nc3ccccc3N)ccc2O[C@H]1CN(C)Cc1ccc(Oc2ccccc2)cc1	-0.32
O=C(O)CCCCCCC(=O)NN=C1CCCC1	-0.13
O=C(N/N=C/c1ccc(N2CCCC2)cc1)c1ccccn1	-0.44
CN(C)c1ccc(/C=N/NC(=O)c2ccccn2)cc1	-0.38
O=C(NCc1ccccc1)C(c1ccco1)N(Cc1ccc(Br)cc1)C(=O)Cc1ccccc1 (stereo not given)	0.25
C[C@@H]1CN([C@H](C)CO)C(=O)CCCn2nncc2CO[C@H]1CN(C)C(=O)Nc1ccc(C(C)(C)C)cc1	-0.3
C[C@@H]1CN([C@@H](C)CO)C(=O)CCCn2nncc2CO[C@H]1CN(C)C(=O)CCCN(C)C	0.22
O=C(CCCCCCC(=O)Nc1ccccc1O)N/N=C/c1ccccc1Br	-0.13
C[C@H](CO)N1C[C@H](C)[C@H](CN(C)C(=O)NC2CCCCC2)Oc2ncc(-c3cc4ccccc4o3)cc2C1=O	-0.53
O=C1O[C@@H](c2ccccc2)[C@@H](c2ccccc2)N2[C@@H](c3ccc(O)cc3)[C@]3(C(=O)Nc4ccc(C#CC5=CCCCC5)cc43)[C@@H](C(=O)N3CCCCCCC3)[C@H]12	0.049
N#Cc1ccc(/C=N/NC(=O)c2ccccc2O)cc1	-0.63
Cc1cccc(CN(C)C[C@@H]2Oc3ncc(C#Cc4ccccc4)cc3C(=O)N([C@H](C)CO)C[C@@H]2C)c1	-0.46
C[C@H](CO)N1C[C@H](C)[C@H](CN(C)S(=O)(=O)c2ccccc2)Oc2ncc(-c3ccccc3)cc2C1=O	-0.34
CCOC(=O)N(C)C[C@@H]1OCc2cn(nn2)CCCC(=O)N([C@H](C)CO)C[C@H]1C	-0.62
COc1ccc(NC(=O)N(C)C[C@@H]2Oc3ncc(C#Cc4cccc(F)c4)cc3C(=O)N([C@H](C)CO)C[C@@H]2C)cc1	-0.21
CC1(C)COC(CCC/C=N/NC(=O)c2ccc(C(=O)NO)cc2)OC1	0.11
CCOC(=O)N(C)C[C@@H]1OCc2cn(nn2)CCCC(=O)N([C@@H](C)CO)C[C@@H]1C	-0.5

Bioassay records (PubChem)
